Screening results (PubChem)
HSD17B inh = qHTS Assay for Inhibitors of HSD17B4, hydroxysteroid (17-beta) dehydrogenase 4; recombinant HSD17B10, NADH fluorescence kinetic; many of its hits are not listed in these tables; actives 7.6% (n = 75,000); Potency, µM (top dose mostly 57.1 µM), without a hit: at the highest dose activity change, negative = inhibition, hits mostly inhibitors; AID 893, 2007; 3-hydroxyacyl-CoA dehydrogenase type-2 (Homo sapiens), Q99714; active means well fitted inhibition curve with a large enough effect; inconclusive means small, poorly fitted or top-dose-only effect; inactive means no such curve, though single readings can be large or run the other way;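 further: the protocol describes HADH2 (HSD17B10) and not the HSD17B4 of the title; nearly all actives have a fitted effect of over 70% in size; most hits overshoot -100% by far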
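20 nM HADH2, pH 9.0 Tris/Tween; cpd preinc 15 min RT; start w/ 1 mM NAD+ + 90 uM b-hydroxybutyryl-CoA; kinetic fluor ex360/em450 q30s x 4 min; delta last-first.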
* hit, by the source's call; ? = inconclusive; & = joins results of further samples; [ ] = remark or other dose. On the % scale 0 is the no-effect control and ±100 the full control effect; potency means the concentration at half of the fitted maximal effect. This is a subset; the hit share may differ from the screen's.

SMILES	HSD17B inh
CCN(CCNC(=O)C1CCCN(S(=O)(=O)CC)C1)c1ccccc1 (stereo unspecified)	6.7%
COc1cccc2cc(-c3csc(CCn4nc(C)cc4C)n3)c(=O)oc12	?
Fc1ccccc1CSc1nnc(-c2ccccc2)o1	-3.8%
Cc1cc(NC(=O)CSc2nnc(-c3ccoc3C)n2N)no1	-2.7%
CCOC(=O)C(CC)Sc1nc(N)c(NC(=O)c2ccc(OC)c(OC)c2)c(=O)[nH]1 (stereo unspecified)	-8.2%
Cc1nc2ncnn2c(N2CCC(C(=O)NCC3CCCO3)CC2)c1Cc1ccccc1 (stereo unspecified)	4.2%
O=C1NC(c2cccs2)Nc2sc3c(c21)CCCC3 (stereo unspecified)	?
COc1cc(C(=O)OC(C)CN2CCN(C)CC2)cc(OC)c1OC (stereo unspecified)	7.9%
CCOc1ccc(-c2nnc3ccc(SCC(=O)N4CCCCC4)nn23)cc1	-1.8%
O=C(OC1CCOC1=O)c1ccc2ncsc2c1 (stereo unspecified)	-6.5%
COC(=O)c1ccc(CSc2ncnc3c2nnn3-c2ccc(OC)cc2)o1	-12.8%
CN1CCN(c2nc3c(c(=O)n(C)c(=O)n3C)n2CC(N)=O)CC1	6.1%

5 of the compounds above, comma-delimited.
SMILES,HSD17B inh
Cc1nc2ncnn2c(N2CCC(C(=O)NCC3CCCO3)CC2)c1Cc1ccccc1 (stereo unspecified),4.2%
O=C1NC(c2cccs2)Nc2sc3c(c21)CCCC3 (stereo unspecified),?
COc1cc(C(=O)OC(C)CN2CCN(C)CC2)cc(OC)c1OC (stereo unspecified),7.9%
CCOc1ccc(-c2nnc3ccc(SCC(=O)N4CCCCC4)nn23)cc1,-1.8%
O=C(OC1CCOC1=O)c1ccc2ncsc2c1 (stereo unspecified),-6.5%

(list continues)
SMILES	HSD17B inh
Cc1cccc(CN2CCN(CC(=O)NCc3ccc(F)cc3)C2=O)c1	5.8%
COc1ccccc1NC(=O)CN1C(=O)NC(C)(C)C1=O	-2.9%
CN(CCc1ccccn1)C(=O)Nc1ccc(F)cc1	8.2%
COc1ccc(-n2c(C)nc3c(cnn3-c3ccc(C)c(C)c3)c2=O)cc1	?
c1ccc2[nH]c(SCCN3CCOCC3)nc2c1	1.6%
c1ccc2[nH]c(CN3CCCCCC3)nc2c1	8.1%
CN(Cc1ccco1)c1cc(-c2cccc(C#N)c2)ncn1	-23.0%
O=C(NC(=O)c1cccc(OC(F)(F)C(F)F)c1)OC1CCS(=O)(=O)C1 (stereo unspecified)	12.2%
O=C(CSc1ccc2nnc(-c3ccncc3)n2n1)NCC1CCCO1 (stereo unspecified)	?
CCC(=O)N(Cc1cc2cc(OC)ccc2[nH]c1=O)c1cccc(C)c1	25.1µM*
CN(C)C(=O)CSc1nnc(CCCCCNC(=O)OC(C)(C)C)o1	9.5%
COc1ccc(S(=O)(=O)Nc2ccc(F)c(Cl)c2)cc1OC	3.6%
COC(=O)[C@H](CCSC)NC(=O)NCCC1=CCCCC1	1.9%
CCN1CCN(C(C(=O)NC2CCCC2)c2ccc(Cl)cc2)CC1 (stereo unspecified)	12.1%
O=c1c(-c2ccc(F)cc2)nc2cnc(Nc3ccccc3)nc2n1C1CC1	-6.0%
Cc1cc(C)c(C)c(OCC(=O)NCC2CCCO2)c1 (stereo unspecified)	0.9%
CC1CCCN(C(=O)c2ccncc2)C1 (stereo unspecified)	6.7%
Cc1cc(NC(=O)CSc2nnc(C3COc4ccccc4O3)o2)no1 (stereo unspecified)	1.6%
CCC(=O)NC(C)C(c1cccs1)N1CCN(c2ccccc2)CC1 (stereo unspecified)	11.7%
COc1ccc(/C(O)=C2/C(=O)C(=O)N(CCCC(=O)O)C2c2ccc(OC)cc2)cc1 (stereo unspecified)	-16.8%
CC#CCOC(=O)c1c(C)nc2sc3c(c2c1N)CC[C@@H](O)C3	?
CN=CC1=C(O)c2ccccc2C1=O	8.6%
COc1c(F)c(F)c(C(=O)Nc2ccccc2N2CCN(C(=O)C(C)C)CC2)c(F)c1F	5.0%
COc1ccc(C(=O)N2CCC3(CCN(Cc4ccccc4)CC3)CC2)cc1	-4.7%
O=C(C1=C(O)C(=O)N(Cc2ccccc2)C1c1cccnc1)c1ccco1 (stereo unspecified)	-5.3%
COc1cccc(C(=O)Nc2ncc3c(n2)CC(C)CC3=O)c1 (stereo unspecified)	-6.4%
CCC1(CC)C(=O)NC(=O)NC1=NCCc1c[nH]c2ccccc12	-0.5%
COc1ccc(CN2C(=O)CN(C3CCCCCC3)C(=O)C2c2ccc(OC)c(OC)c2)cc1 (stereo unspecified)	10.5%
Cc1ccc(OCC(O)CN2CCN(CC(O)COc3ccc(C)cc3Cl)CC2)c(Cl)c1 (stereo unspecified)	0.7%
Cc1csc(NC(=O)CSc2nnc(-c3cccs3)n2C)n1	7.5%
Cc1ccccc1-n1nc2c(c1NC(=O)c1cc3ccccc3oc1=O)CS(=O)C2 (stereo unspecified)	-7.1%
Cc1csc(NC(=O)c2c(O)c3c(n(CC(C)C)c2=O)CCCC3)n1	-0.5%
O=C(Nc1nc2ccccc2s1)C1CCCO1 (stereo unspecified)	7.9%
COc1ccc(C2C(=O)c3ccccc3C2=O)c(OC)c1	-4.1%
CC(C)C(NC(=O)c1cccs1)C(=O)NC1=NCCS1 (stereo unspecified)	9.0%
CCCCc1cc(=O)oc2cc(C)cc(OCC(=O)O)c12	31.6µM*

In a second layout: results already given.
mol | HSD17B inh
O=C(Nc1nc2ccccc2s1)C1CCCO1 (stereo unspecified) | 7.9%
COc1ccc(C2C(=O)c3ccccc3C2=O)c(OC)c1 | -4.1%

Further records follow:
SMILES	HSD17B inh
COc1ccc(C(=O)Oc2cc(OC)cc(OC)c2C(C)=O)cc1	7.8%[11.4 µM]
O=C(Cn1c(=O)n(Cc2ccco2)c(=O)c2c3c(sc21)CCCC3)Nc1ccccc1	-8.2%
CC(NC(=O)Cc1cccs1)c1ccncc1 (stereo unspecified)	2.4%
COc1ccc(CN(C(C)=O)c2cccc(C)c2C)cc1	-11.1%
COc1cc(S(=O)(=O)N2CCN=C2c2ccccc2)ccc1F	6.1%
CN(C)c1ccc(-c2nnn(Cc3ccccc3Br)n2)cc1	?
Cc1nc2c([nH]c3ccc(Br)cc32)s1	4.3%
O=C(O)C1C2C=CC(C2)C1C(=O)N1CCN(CCO)CC1 (stereo unspecified)	12.8%
Cc1ccc2c(c1)NC(=O)C(CC(=O)NCCCN1CCCCC1)O2 (stereo unspecified)	-2.0%
Cn1c(=O)c(=O)n(C)c2cc(S(=O)(=O)CCC(=O)N3CCOCC3)ccc21	-21.8%
N#CCCN(Cc1cccnc1)S(=O)(=O)c1ccc(S(=O)(=O)N2CCCCCC2)cc1	10.9%
O=C(Nc1ccc2c(c1)OCO2)C1CCCN1C(=O)NCc1ccccc1 (stereo unspecified)	11.5%
CO[C@]1(C2=NCCN2)COc2ccccc2O1	-4.5%&4.0%
O=C1CC(NCc2ccccc2F)C(=O)N1c1ccccc1 (stereo unspecified)	-6.0%
COC(=O)N1CCC2(CCN(C(=O)Nc3ccccc3)CC2)CC1	6.0%
Cc1ccc(NCc2nnc(SCC(=O)Nc3ncc(C)s3)n2CC2CCCO2)c(C)c1 (stereo unspecified)	0.6%
COc1ccccc1NS(=O)(=O)c1ccc(NC(=O)c2nc3ncccn3n2)cc1	-9.7%
NC(=O)C1CCCN(C(=O)Nc2cccc3ccccc23)C1 (stereo unspecified)	15.8µM*
O=C(CCSc1nc2cc(Cl)ccc2o1)N1CCOCC1	-7.9%
O=C(CSc1ncn(-c2ccccc2)n1)Nc1ccc2c(c1)OCO2	3.8%
N#C/C(=C\Nc1ccccn1)C(=O)C1CC1	4.0%[11.4 µM]
CC1CCN(C(=O)c2cc3ccccc3o2)CC1	0.1%
Cn1c(=O)[nH]c(=O)c2c1nc(N1CCOCC1)n2CC(O)COc1ccccc1 (stereo unspecified)	2.2%
CCn1c(C)nc2cc(S(=O)(=O)C(F)(F)C(F)C(F)(F)F)ccc21 (stereo unspecified)	0.4%
Cc1nc2cnc(Oc3ccccc3)nc2n(CCC#N)c1=O	-4.4%
O=S(=O)(NCC1CCCO1)c1cc(Br)c(Br)s1 (stereo unspecified)	-4.6%
Cc1nc(Nc2ccc(F)cc2)[nH]c(=O)c1CCC(C)C	-15.3%
CCCCN(Cc1ccccc1)C(=O)C1CCCN(S(=O)(=O)c2cnc[nH]2)C1 (stereo unspecified)	-0.4%
COCCCNc1oc(COc2ccc(Cl)cc2Cl)nc1C#N	-7.5%
CO[C@@H]1COC(=O)C/C=C\[C@@H](C)COC(=O)[C@H](COCc2ccccc2)NC(=O)C/C=C\[C@H]1C	4.3%[11.4 µM]
Cc1nn(-c2ccc(C(=O)Nc3nnc(C4CC4)s3)cc2)c(C)c1Cl	0.6%
COc1ccc(-n2c(Cc3cccn3C)nnc2SCC(=O)N2CCCC2)cc1	2.1%
Cc1nc2ccc(NC(=O)Cc3cccs3)cc2s1	-21.3%
Cc1cc2c(c(=O)o1)C1(C(=O)N(CC(=O)O)c3ccccc31)C(C#N)=C(N)O2 (stereo unspecified)	-16.8%
Cc1ccc(N(CC(=O)O)S(=O)(=O)c2cccc3nonc23)cc1	-0.8%
CCn1c(C(C)NC(=O)c2cccs2)nc2ccccc21 (stereo unspecified)	6.4%

Pulled by structure from above:
SMILES	HSD17B inh
COc1ccc(-n2c(Cc3cccn3C)nnc2SCC(=O)N2CCCC2)cc1	2.1%
O=S(=O)(NCC1CCCO1)c1cc(Br)c(Br)s1 (stereo unspecified)	-4.6%
Cc1ccc(N(CC(=O)O)S(=O)(=O)c2cccc3nonc23)cc1	-0.8%
Cc1nc2ccc(NC(=O)Cc3cccs3)cc2s1	-21.3%
Cc1nn(-c2ccc(C(=O)Nc3nnc(C4CC4)s3)cc2)c(C)c1Cl	0.6%
CCCCN(Cc1ccccc1)C(=O)C1CCCN(S(=O)(=O)c2cnc[nH]2)C1 (stereo unspecified)	-0.4%

Other structures follow.
SMILES	HSD17B inh
O=C(Nc1cccc(F)c1)c1cccc(S(=O)(=O)N2CCOCC2)c1	?
CCC(C)N(C(=O)COC(=O)Cc1n[nH]c(=O)c2ccccc12)C1CCS(=O)(=O)C1 (stereo unspecified)	11.3%
CCOC(=O)c1ccc(S(=O)(=O)N2CCN(S(=O)(=O)CC)CC2)cc1	15.4%
O=C(O)c1ccccc1/C=N\N=C1c2ccccc2-c2ccccc21	3.2%[11.4 µM]
CCc1ccc2[nH]c(=O)c(CN(Cc3ccc4c(c3)OCO4)C(=O)c3ccco3)cc2c1	?
C#CCN1C(=O)C(O)(CC(=O)c2cccc(OC)c2)c2ccccc21 (stereo unspecified)	2.8%
O=C(c1ccccc1F)N1CCN(c2cccc(C(F)(F)F)c2)CC1	-3.5%
COCCCNC(=O)CCS(=O)(=O)Cc1ccc(C)cc1	0.3%
CCC1Oc2ccc(C)cc2N(CC(=O)NCc2cc(OC)ccc2OC)C1=O (stereo unspecified)	3.8%
CCOC(=O)C1=C(CSc2nccn2C)NC(=O)NC1c1ccc2c(c1)OCO2 (stereo unspecified)	-0.7%
CCCc1nc2ccccc2c(=O)n1/N=C/c1ccc(O)cc1O	2.2%
COc1ccc(C(=O)OCCN=C2NS(=O)(=O)c3ccccc32)cc1OC	-5.0%
CCCCNC(=O)CCn1c(=O)c2ccccc2n(CC(=O)Nc2ccccc2OCC)c1=O	9.1%
COc1ccc(Nc2nc(N)nc(C(F)(F)F)n2)c(OC)c1	1.6%
Cc1ccccc1N1CCN(S(=O)(=O)c2ccc3oc(=O)ccc3c2)CC1	-28.5%
O=C(C1CC(c2ccc(F)cc2)=NO1)N1CCN(Cc2ccccc2)CC1 (stereo unspecified)	-1.5%
COC(=O)CSc1nnc(-c2sc3cc(OC)ccc3c2Cl)n1C	-2.4%
NC(=O)CSc1nnc(CNc2ccc(F)cc2)n1CC1CCCO1 (stereo unspecified)	-6.7%
COc1ccc(NC(=O)Cc2nn(C)c(=O)c3ccccc23)c2ncccc12	-7.3%
Cc1noc(C)c1-c1cc(N(C)Cc2ccco2)ncn1	?
COC(=O)c1[nH]c2cc(OC)ccc2c1NC(=O)CN1CCC(C(N)=O)(N2CCCCC2)CC1	-15.3%
O=C(NCc1cn2ccsc2n1)c1cccs1	2.9%
CCCCOc1ccc(C(=O)N2CCC(C)CC2)cc1	-3.4%
CCN1CCN(CC(O)COc2cccc(OC)c2)CC1 (stereo unspecified)	10.3%
CCN(C(=O)c1cc(Cl)ccc1OC)C1CCCCC1	-1.0%
CCOC(=O)CN1C(=O)C(O)=C(C(C)=O)C1c1ccccc1 (stereo unspecified)	-8.0%
CC(C)(C)OCC(NC(=O)C(CC(N)=O)NC(=O)OC(C)(C)C)C(=O)OC(C)(C)C (stereo unspecified)	-0.3%
COc1ccc(NC(=O)CS(=O)CC(=O)NC2CCCc3ccccc32)cc1 (stereo unspecified)	4.0%
O=C(Nc1nccs1)Oc1ccccc1	6.1%
COc1ccc(C2CC(C(F)(F)F)n3ncc(C(=O)NCc4cccnc4)c3N2)cc1OC (stereo unspecified)	2.0%
CS(=O)(=O)N1CCc2cc(-c3csc(NC(=O)Cc4cccs4)n3)ccc21	2.9%
COc1ccc(CCNC(=O)CC2Nc3cc(C)c(C)cc3NC2=O)cc1OC (stereo unspecified)	?
Cn1c(COc2ccccc2)nnc1SCc1nc2ccccc2[nH]1	10µM*
CCc1cc(=O)oc2cc(OCC(=O)OC)c(Cl)cc12	7.1%
COc1ccc(OC)c(C(=O)CSc2nnnn2C)c1	-9.7%
CCCCn1c(SCC(=O)Nc2cc(C)on2)nc2ccsc2c1=O	8.4%
CCCSc1nc(N)c(C#N)c(-c2ccc(C)cc2)c1C#N	-27.1%
O=C(c1csnn1)N1CCC2(CCCN(c3cccc(-c4ccccc4)c3)C2)CC1	-3.3%
CCS(=O)(=O)NCCc1cc2ccc(C)cc2[nH]c1=O	?
